Assay outcomes from PubChem.
Tgondii IFNg – inhibitors of Toxoplasma gondii growth with IFN-gamma. Toxoplasma gondii growth in IFN-gamma-treated host cells; hits give low values; reference of the scale not given here. activity change, negative = inhibition, %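 (about 20 µM by stock and volumes)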. hit rate 3.8% among 69,000;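 active means below -70%; inconclusive means fit judged invalid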;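 further: host cells are HeLa cells infected with Toxoplasma gondii; parasite growth read as luciferase light; one replicate is shown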
Active calls of the source: *; i = inactive; ? = inconclusive; & = joins results of further samples. These rows are one share of the data; rates above refer to the full screens.

smiles	Tgondii IFNg
CC(C)N1CCOCC2(C1)CN(S(C)(=O)=O)CCO2 (stereo not given)	6.4
COC(=O)c1c(C)noc1-c1ccc(Cl)cc1	-27.6
Cc1n[nH]c(=O)c(N)c1-c1cc(-c2ccsc2)n[nH]1	-63.9
N#C[C@H]1[C@@H](c2ccccc2-c2ccccc2F)[C@@H](CO)N1C(=O)C1CCC1	-7.2
C[C@@H]1CN([C@@H](C)CO)S(=O)(=O)c2ccc(-c3cccc(C#N)c3)cc2O[C@@H]1CN(C)C(=O)c1ccccc1	-63.1
O=C(Cn1ncc2c(N3CCCCC3)ncnc21)N1CCC(N2CCCCC2)CC1	103.4
Cc1ccc(NC(=O)C(=O)NCCc2sc(-c3cccc(F)c3)nc2C)cc1	7.1
O=C(NC1CC1)c1nc(C(=O)N2CCC3(CC2)OCCO3)cs1	-13.6
N#CCCn1nc(-c2ccccc2)cc1N	23.7
CCCCN(CCCNc1nc(C(=O)OCC)nc2ccccc12)c1ccccc1	-77.9*
Fc1cccc(CN2CCN(Cc3cnc(-c4ccccc4)nc3)CC2)c1	-1.9
CCCS(=O)(=O)N1Cc2ccnn2CC(c2nc(C)no2)C1 (stereo not given)	3.6
O=C(O)c1ccc(C(=O)C(=O)c2ccccc2)cc1	4.6
CC(C)(C)c1nnc(NC(=O)C2CC(=O)N(CCc3c[nH]c4ccc(F)cc34)C2)s1 (stereo not given)	73.7
CCOC(=O)c1c(N)n(-c2ccc(Cl)cc2)c2nc3ccccc3nc12	0.6
Cc1ccc(CN2CCC3(CC2)CC(CC(=O)NC2CC2)c2ccccc2O3)o1 (stereo not given)	-27.9
CC(=O)c1ccc(NC(=O)N2CCCC(C(=O)c3cccc(OC(C)C)c3)C2)cc1 (stereo not given)	21.2
O=C(N[C@@H]1CC[C@@H](CCNS(=O)(=O)c2ccc(F)cc2)O[C@H]1CO)C1CCC1	0.1
CCOC(=O)CCNc1cc(N2CCc3ccccc3CC2)nc(-c2ccccn2)n1	-68.7
Cc1oc(-c2ccc(NC(=O)CC3CCCC3)cc2)nc1Cn1cccn1	-11.8
COc1ccc(-c2nccn2CCc2cnc[nH]2)c(C)c1C	-3.0
Cc1ccccc1-n1cc(CN(C)C(=O)c2ccc(=O)[nH]n2)cn1	-46.1
Cc1noc(C)c1S(=O)(=O)Nc1ccc2c(c1)CC(=O)N([C@@H](C)CO)C[C@@H](C)[C@@H](CN(C)Cc1ccc(Oc3ccccc3)cc1)O2	?
Cc1ccc2nc(COCC(=O)N3CC[C@H](O)[C@@H](O)C3)[nH]c2c1	-3.2
Fc1ccc(Cn2c3ccccc3c3nn4cnnc4nc32)cc1	142.9

An excerpt of these results, with each value named:
O=C(NC1CC1)c1nc(C(=O)N2CCC3(CC2)OCCO3)cs1
  Tgondii IFNg = -13.6
CCOC(=O)c1c(N)n(-c2ccc(Cl)cc2)c2nc3ccccc3nc12
  Tgondii IFNg = 0.6

New compounds follow:
smiles	Tgondii IFNg
Cc1ccc(F)cc1S(=O)(=O)N1CCC(c2nc(C(=O)N3CCCCC3)c(C)o2)CC1	-77.1*
Cc1nc(N)ncc1C(=O)N1CCCC1c1ccc2c(c1)OCCCO2 (stereo not given)	-4.1
Cc1ccc(CNC(=O)CSc2nnc(C)s2)cc1	-3.8
Cc1ccc(NC(=O)N2CCC3(CC2)Nc2cc(F)ccc2-n2cccc23)cc1	i
CCc1nc(N)sc1C(=O)N1CCC2(CCOCC2)CC1	2.8
COCC(=O)N1CC2(C1)[C@H](c1ccccc1)[C@@H](CO)N2CCC(F)(F)F	-10.4
CO[C@@H]1CN(C)C(=O)c2cc(NC(=O)c3cnccn3)ccc2OC[C@H](C)NC[C@H]1C	10.4
Cc1nc(N2CCCC2)sc1C(=O)Nc1cccc(N2CCCCS2(=O)=O)c1	8.6
COc1nc(Nc2ccccc2)nc(OC)n1	-115.5*
CCS(=O)(=O)N1CCC2(CC1)OC(=O)C(C)=C2C(=O)NCCCN1CCCCC1C (stereo not given)	32.8
C[C@@H](NC(=O)C[C@@H]1C=C[C@H](NS(=O)(=O)c2cccc(F)c2)[C@H](CO)O1)c1ccccc1	15.7
CC(C)n1nnc(CC(=O)NCC2(c3ccccc3F)CCCC2)n1	85.2
Cc1ccc(CNC(=O)Cn2c(=O)ccc3cc(S(=O)(=O)N4CCC(C)CC4)ccc32)o1	32.7
Cc1ccc(NC(=O)c2ccccc2C)c(NC(=O)C(C)(C)O)c1	205.3
CN(C)C(=O)N1CCn2cc(Cn3cccn3)nc2C1	89.6
Cc1ccc(C2c3[nH]c4ccccc4c3CCN2C(=O)c2cccnc2)cc1 (stereo not given)	68.4
O=C(NCCCc1ccccc1)c1nc(Nc2ccc(F)cc2)c2ccccc2n1	-45.1
COCC(c1ccccn1)N(C)C(=O)CC(=O)Nc1cc(C)cc(C)c1 (stereo not given)	6.5
COc1ccccc1C(CCNS(=O)(=O)c1ccccc1)c1ccc2c(c1)OCO2 (stereo not given)	-74.7*
CC(=O)N[C@H]1C[C@@H](CCn2nc(C)cc2C)O[C@@H](C2CCCCC2)C1	-4.6
COc1cccc(S(=O)(=O)N[C@@H]2CC[C@@H](CC(=O)NC3Cc4ccccc4C3)O[C@H]2CO)c1	-12.9
COCCn1cc2c(n1)C(CNC(=O)CS(C)(=O)=O)OCC2 (stereo not given)	-50.4
COc1cc(C)c(S(=O)(=O)NCCc2cnccn2)cc1C(C)C	0.7
Cc1noc(C)c1NC(=O)N(C)C[C@H]1OCCCC[C@@H](C)Oc2ccc(NC(=O)Nc3ccc(C(F)(F)F)cc3)cc2C(=O)N([C@@H](C)CO)C[C@H]1C	293.6
Cc1ccc(NC(=O)c2nnn(Cc3nc(-c4cccc(Cl)c4)oc3C)c2C)c(C)c1	-28.8

6 structures from above, ordered by count of non-hydrogen atoms, largest number first:
smiles	Tgondii IFNg
COc1cccc(S(=O)(=O)N[C@@H]2CC[C@@H](CC(=O)NC3Cc4ccccc4C3)O[C@H]2CO)c1	-12.9
Cc1ccc(CNC(=O)Cn2c(=O)ccc3cc(S(=O)(=O)N4CCC(C)CC4)ccc32)o1	32.7
Cc1ccc(F)cc1S(=O)(=O)N1CCC(c2nc(C(=O)N3CCCCC3)c(C)o2)CC1	-77.1*
Cc1ccc(NC(=O)c2ccccc2C)c(NC(=O)C(C)(C)O)c1	205.3
CN(C)C(=O)N1CCn2cc(Cn3cccn3)nc2C1	89.6
Cc1ccc(CNC(=O)CSc2nnc(C)s2)cc1	-3.8

Remaining list, next part:
smiles	Tgondii IFNg
COc1ccc2c3c(n(C)c2c1)[C@@H](CO)N(CC1CC1)CC31CCN(C(=O)NC2CCCC2)CC1	-35.5
CCCCNC(=O)N1CCC2(C1)CN(c1cccnc1)C(=O)CN2C (stereo not given)	71.3
CCC(CN1CCOCC1)NC(=O)Cc1coc2cc(C)cc(C)c12 (stereo not given)	-81.9*
CN1CC[C@@]2(CN(Cc3cnn(C)c3)C[C@H]2c2ccccc2)C1=O	65.9
Cc1cccc(NC(=O)c2ccc3ccc(N4CCN(CC5CC5)CC4)n3c2)c1C	17.3
COCCCN1C(=O)C(=O)/C(=C(/O)c2ccc3c(c2)CC(C)O3)C1c1cccnc1 (stereo not given)	2.5
Cc1ccc(-c2cccc(CC3(C(N)=O)CN(C(=O)c4snnc4C)CCO3)c2)cc1 (stereo not given)	-9.3
C[C@H](NC(=O)C[C@H]1C=C[C@@H](NS(=O)(=O)c2cccc(F)c2)[C@H](CO)O1)c1ccccc1	4.1
CCOc1ccc2nc(SCC(=O)Nc3nc4ccc(OC)cc4s3)sc2c1	35.5
COc1ncccc1C(=O)N1CC[C@@H]2O[C@@H](c3nc(C)no3)C[C@H]2C1	-1.9
Cc1cccc(CN2CCCC3(COCCN(c4cccnc4)C3)C2)n1 (stereo not given)	67.3
CCOC(=O)c1cccc(-n2sc(=O)n(C3Cc4ccccc4C3)c2=O)c1	44.2
O=C(c1cccs1)N1CCC2(CC1)Nc1cccnc1NC2=NCc1ccccc1	18.1
O=C1CCC(=O)N[C@H](c2ccccc2)C/C=C\CCN1	11.1
CCOCC12CCCOC1CCN(S(=O)(=O)N(C)C)C2 (stereo not given)	-10.1
Cc1nc2c(nc(SCc3nc(-c4ccccc4)oc3C)n2C)c(=O)[nH]1	-6.3
Cc1ccc(-c2nc(C(=O)Nc3ccc4c(c3)OCCO4)c3n2CCCCC3)cc1	-93.9*
C=CC[C@@H]1CC=C[C@@H](C)N1C(=O)CC(=O)Nc1cc(OC)ccc1OC	-9.6
COCC(=O)Nc1ccc2c(c1)C(=O)N(C)[C@@H]1CC[C@H](CC(=O)N3CCc4ccccc4C3)O[C@@H]1CO2	-6.0
Cc1[nH]c2ccc(CNC(=O)c3cc(CC(C)C)[nH]c(=O)n3)cc2c1C	15.8
CCn1c(=O)c(-c2nc(-c3ccc(C(=O)OC)cc3)no2)c(O)c2ccccc21	30.0
O=C(c1n[nH]c2ccccc12)N1CCOC2(CNCCOC2)C1 (stereo not given)	9.3
CCOc1ccc(C(=O)N2CCC(O)(c3ccc(C)cn3)CC2)o1	1.5
Cc1ccc(NC(=O)c2c(O)c3ccccc3[nH]c2=O)cc1C	i
COc1ccc(NC(=O)N(C)C[C@@H]2Oc3ccc(NC(=O)Nc4cccc5ccccc45)cc3CC(=O)N([C@H](C)CO)C[C@@H]2C)cc1	-46.8
CN(C)C(=O)[C@]12CCO[C@@H]1CCN(Cc1nccs1)C2	-1.3
COC(=O)C[C@H]1C(C)(C)[C@@H](O)[C@@H]2CC3=C4CC(O)O[C@@H](c5ccoc5)[C@]4(C)CCC3[C@@]1(C)C2=O (stereo not given in full)	0.6
O=C(C[C@H]1CC[C@H]2[C@@H](COC[C@@H](O)CN2CC2CCOCC2)O1)NCc1ccc(Cl)cc1	-20.4
C[C@@H]1CN(c2c(F)c(F)c3c(=O)c(C(=O)O)cn(C4CC4)c3c2F)C[C@H](C)N1	3.0&10.1
Cc1nnc(SCc2ccc(C#N)cc2)n1C	-50.3
Cc1nnc(NC(=O)COc2ccc3c(C)cc(=O)oc3c2)s1	-8.4
CC1=NC2(CCN(C(=O)c3coc(COc4cccc(F)c4)n3)CC2)C(=O)N1	35.7
Cc1ccccc1-c1ccc2c(c1)O[C@@H](CN(C)C(=O)Nc1ccc(C(F)(F)F)cc1)[C@@H](C)CN([C@@H](C)CO)S2(=O)=O	?
CC1CCCC(C)N1NC(=O)c1ccc(Cl)c(S(N)(=O)=O)c1 (stereo not given)	12.0&8.2
CC(C)n1nc(COCCN(C)C)c2c1CN(C(=O)NC1CC1)CC2	4.0
O=C(NCC1(O)CCCNCC1)c1cc(-c2ccccc2)on1 (stereo not given)	5.8
CCc1nn2cc(-c3ccc(Cl)cc3)nc2s1	38.7
CCOCC(=O)N1C[C@H]2CCC[C@]2(COCc2csc(C)n2)C1	-66.2
Cc1ccc(C(=O)N2CCC(N3CCOCC3)CC2C(=O)O)cc1 (stereo not given)	5.6
O=C(CC1COCCN1)NCCc1ccc(Cl)cc1Cl (stereo not given)	-46.4
CC(=O)c1c(C(C)=O)c(C)n(-c2nc(-c3ccc(C)c(C)c3)c(C)s2)c1C	-4.1
CCN1C(=O)COc2cc3c(cc21)C(c1ccncc1F)CC(=O)N3 (stereo not given)	0.3
CC(C)Cc1nc2ccccc2c(=O)n1NC(=O)c1sc2ccccc2c1Cl	-24.7
COc1ccc(-n2c(=O)c(C(=O)Nc3ccc4c(c3)OCO4)c(O)c3cccnc32)cc1	106.5
CCN1CCOC2(CCN(C(=O)c3ccsc3)CC2)c2ccccc21	-12.7
CCOC(=O)c1ccc(NC(=O)CN2CCC3(CC2)N=C(c2ccccc2)C(=O)N3)cc1	-24.5
CCn1c(C)cs/c1=N/C(=S)Nc1ccccc1C	-2.5
Cc1nc2ccc(C(=O)NC(C)c3ccccn3)cc2s1 (stereo not given)	63.3
COc1ccc(S(=O)(=O)Nc2ccc3c(c2)CC(=O)N([C@H](C)CO)C[C@@H](C)[C@@H](CN(C)C(=O)Nc2c(C)noc2C)O3)cc1	20.7
Cc1nc2ccc(NC(=O)c3noc(C)c3COc3ccccc3F)cc2nc1C	11.8

Later entries
smiles	Tgondii IFNg
O=C(O)C1CC(O)CN1 (stereo not given)	3.5
O=C(NCCc1cccnc1)c1ccn(-c2ccc3ccc(-c4ccccc4)cn23)n1	8.0
O=C(c1cscn1)N1C[C@H](Oc2ccccn2)[C@@H]2OCCC[C@@H]21	-3.0
COc1ccc2c3c(n(C)c2c1)[C@H](CO)N(C(=O)NC1CCCCC1)CC31CCN(C)CC1	89.3
O=C(c1cc2c(s1)CCCC2)N1CCCn2cncc2C1	9.2
Cn1ncc2c(c(S(=O)(=O)Cc3ccc(Cl)cc3Cl)nn2C)c1=O	-22.9
Cc1ccc(NC(=O)Cn2c(=O)cc(C(=O)N3CCOCC3)c3ccccc32)c(Cl)c1	7.6
CCCNC(=O)N1CC2(C1)CN(Cc1ccc(F)cc1)[C@@H](CO)c1[nH]c3cc(OC)ccc3c12	-12.5
Cc1cccc(NC(=O)c2c(O)c3cccnc3n(-c3ccccc3)c2=O)c1	230.3
Cc1[nH]c2ccccc2c1C(=O)N1CCCC1c1ccc(C(=O)N2CCN(C)CC2)cn1 (stereo not given)	0.3
CCc1ccc(CN2CC[C@@H](c3sccc3C)[C@H](O)C2)nc1	-35.1
C=CCn1c(=O)c(C(=O)Nc2ccc(CC)cc2)c(O)c2ccccc21	-20.0
O=C(NCCc1csc(-c2ccc(C(F)(F)F)cc2)n1)C(=O)Nc1ccc(Cl)cc1	39.2
Cc1ccc(C(C)NC(=O)Cn2ncc3c(N4CCCCCC4)ncnc32)cc1C (stereo not given)	97.1
